Screens as filed in PubChem BioAssay.
miR-21 FLuc: miR-21 reporter, rising signal | HeLa miR-21 FLuc reporter, luciferase, 48 h | Potency, µM (doses to about 38.3 µM), for the others: at the top dose reporter change, positive = more light | 340,000 tested, under 10 active; active = well fitted rising curve with a large enough effect; inconclusive = small, poorly fitted or top-dose-only effect; inactive = no such curve, though single readings can be large or run the other way;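 note: % of control where 0% means no effect; miR-21 action dims this reporter so a rising signal means less miR-21 action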
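Compounds were titrated across several concentrations (up to approximately 40 uM) and incubated 48 hours with HeLa miR-21-FLuc reporter cells (miR-21 target sequence downstream of FLuc, endogenous miR-21). Readout was firefly luciferase luminescence after lytic detection reagent.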
GLA inh pH 4.5: alpha-galactosidase A (human) inhibition, pH 4.5; purified enzyme, 4-MU-alpha-Gal fluorescence, pH 4.5; activity change, negative = inhibition, % at 105 µM; 230,000 tested, under 10 active; AID 1467; inconclusive = small, poorly fitted or top-dose-only inhibition, or a rising curve; inactive = flat fitted curve, though single readings scatter; no compound was filed as active;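 note: 0% = full activity with enzyme and -100% = basal without enzyme; dose as in the result columns while the protocol names 77 µM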
Target sequence (P06280 whole entry, looked up): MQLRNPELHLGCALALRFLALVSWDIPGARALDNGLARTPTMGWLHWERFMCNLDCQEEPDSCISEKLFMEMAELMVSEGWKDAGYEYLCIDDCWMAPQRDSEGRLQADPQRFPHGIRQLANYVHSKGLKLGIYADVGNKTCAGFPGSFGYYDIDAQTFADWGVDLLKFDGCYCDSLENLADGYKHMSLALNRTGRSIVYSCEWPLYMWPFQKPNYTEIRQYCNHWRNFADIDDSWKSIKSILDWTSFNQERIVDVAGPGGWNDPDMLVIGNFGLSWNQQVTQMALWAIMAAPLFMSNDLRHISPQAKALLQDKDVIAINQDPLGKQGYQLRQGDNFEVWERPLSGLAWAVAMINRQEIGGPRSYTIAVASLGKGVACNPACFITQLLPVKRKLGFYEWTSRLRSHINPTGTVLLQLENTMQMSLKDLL
Rango-impB inh: prevents formation of the Rango-importin beta complex. Q14974. Rango CFP/YFP FRET sensor + importin beta, 45 min. Potency, µM (titrated, usually from 92.2 µM), without a hit: at the top dose inhibition of complex formation. 340,000 compounds, 0.031% hits. AID 540263; active = rising FRET ratio curve, often small or poorly fitted; inconclusive = mostly compound fluorescence or quenching in the first reads; inactive = flat curves in all reads;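 note: potency is the fitted concentration of half-maximal effect; 0% = DMSO wells and 100% = buffer wells lacking importin beta; nearly all actives have a fitted effect of over 15% in size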
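FRET biosensor (snurportin 1 IBB flanked by EYFP and cerulean), 50 nM, with compound 5 min, then 0.125 microM importin beta in PBS, 1 mM DTT, 0.02% Tween-20, 0.1% BSA. CFP/YFP ratio read after 45 min at room temperature; pre-read flags interference.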
Rango dissoc inh: inhibition of RanGTP-driven Rango-importin beta dissociation | Biochemical FRET Rango-importin beta, RanGTP-induced dissociation | 340,000 compounds, 0.071% hits | Potency, µM (highest dose often 46.1 µM), without a hit: top-dose activity change, negative = inhibition | O95149+P62826; active means falling FRET ratio curve, often poorly fitted, with flat reads before Ran was added; inconclusive means other falling curves, or compound fluorescence or quenching; inactive means flat or rising ratio curve;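 note: potency is the fitted concentration of half-maximal effect; % of control where 0% means no effect; nearly all actives have a fitted effect of over 45% in size; -100% = wells without RanGTP and RCC1; the record marks most hits as doubtful in a second field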
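FRET read at 45 min, room temperature: inhibitors block the CFP/YFP signal rise when RanGTP (0.6 uM Ran, 2 mM GTP, 0.2 uM RCC1) frees Rango (0.1 uM) from importin beta (0.25 uM). Pre-read after 5 min compound exposure flags interference.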
* marks the source's active call; other numbers are inactive results; ? = inconclusive; / = not tested or not shown; & = joins results of further samples.

Sample of the layout (six entries):
Below each SMILES: miR-21 FLuc | GLA inh pH 4.5 | Rango-impB inh | Rango dissoc inh
#1 CC1(C(=O)N2CC3(CC(c4cccc([N+](=O)[O-])c4)=NO3)C[C@H]2C(=O)NCC(N)=O)CC1 (stereo not given in full)
→ 0% | 7 | -1.0% | 31%
#2 Cc1cc([N+](=O)[O-])c(N2CCC[C@@H]2C(=O)O)c([N+](=O)[O-])c1
→ -14% | 3 | 4.1% | -6%
#3 CCOc1ccccc1N1CCN(C(=O)c2ccccc2)CC1
→ 0% | -6 | -1.2% | 5%
#4 CCOC(=O)c1ccc(NCCOC)c([N+](=O)[O-])c1
→ -50% | -26 | 0.2% | 0%
#5 COc1ccc(CCNC(=O)CCCOc2cc(=O)n(C)c3ccccc23)cc1OC
→ 0% | 0 | -2.9% | -3%
#6 O=C(CN1C(=O)NC2(CCc3ccccc32)C1=O)c1ccc(Br)cc1 (stereo not given)
→ / | / | ? | 0%

This part in full (from the top)
Below each SMILES: miR-21 FLuc | GLA inh pH 4.5 | Rango-impB inh | Rango dissoc inh
#1 CC1(C(=O)N2CC3(CC(c4cccc([N+](=O)[O-])c4)=NO3)C[C@H]2C(=O)NCC(N)=O)CC1 (stereo not given in full)
→ 0% | 7 | -1.0% | 31%
#2 Cc1cc([N+](=O)[O-])c(N2CCC[C@@H]2C(=O)O)c([N+](=O)[O-])c1
→ -14% | 3 | 4.1% | -6%
#3 CCOc1ccccc1N1CCN(C(=O)c2ccccc2)CC1
→ 0% | -6 | -1.2% | 5%
#4 CCOC(=O)c1ccc(NCCOC)c([N+](=O)[O-])c1
→ -50% | -26 | 0.2% | 0%
#5 COc1ccc(CCNC(=O)CCCOc2cc(=O)n(C)c3ccccc23)cc1OC
→ 0% | 0 | -2.9% | -3%
#6 O=C(CN1C(=O)NC2(CCc3ccccc32)C1=O)c1ccc(Br)cc1 (stereo not given)
→ / | / | ? | 0%
#7 O=C1C=C(c2cc3ccccc3s2)C[C@@H](c2ccc(F)cc2)C1
→ / | / | -2.0% | -8%
#8 CCOC(=O)c1ccc(NC(=O)COc2ccc(S(=O)(=O)N3CCCC3)cc2)cc1
→ 6% | 1 | 1.5% | 0%
#9 CC(C(=O)c1ccccc1)[n+]1cccc(C(N)=O)c1 (stereo not given)
→ 5% | -3 | 0.5% | 2%
#10 O=c1cc(NCc2ccccc2)[nH]c(=O)[nH]1
→ / | / | -3.8% | -4%
#11 COc1ccccc1-n1cc2ccc([N+](=O)[O-])cc2n1
→ / | / | ? | 2%
#12 CC(C)[C@H](NC(=O)c1ccccc1Cl)C(=O)OCc1cc([N+](=O)[O-])cc2c1OCOC2
→ -10% | -3 | 0.2% | -9%
#13 COc1ccc(CN(C)CC(=O)Nc2ccccc2C(F)(F)F)cc1
→ 14% | -4 | 0.2% | 12%
#14 O=C(Nc1ccccc1F)c1ccc(COc2ccc(Cl)cc2Cl)o1
→ -16% | -27 | 5.6% | 6%
#15 Cc1nc2nc(SCC(=O)NCc3ccco3)nn2c(C)c1Cc1ccccc1
→ 1% | 6 | -2.4% | -17%
#16 Cc1csc(=O)n1CCC(=O)OCc1nnc(-c2ccccc2)o1
→ / | / | 2.3% | -26%
#17 CC(C)CN(C(=O)COC(=O)c1cccnc1Cl)c1c(N)n(Cc2ccccc2)c(=O)[nH]c1=O
→ / | / | -0.3% | -15%
#18 O=c1[nH]c(=O)n([C@H]2C[C@H](O)[C@@H](CO)O2)cc1I
→ / | / | ? | 2%
#19 c1ccc(C(c2c[nH]c3ccccc23)c2c[nH]c3ccccc23)nc1
→ -29% | 0 | -1.8% | -20%
#20 COC(=O)c1ccc(CSCc2ccc(C(=O)OC)o2)o1
→ -1% | / | -1.9% | 4%
#21 O=C1CN(C(=O)NCC(=O)N[C@@H](Cc2ccccc2)C(=O)O)c2ccccc2N1
→ 0% | / | -1.8% | 20%
#22 CSc1nc(N)c(C(=O)NC2CCCCC2)s1
→ -36% | -10 | -0.8% | -11%
#23 COc1cccc(NC(=O)C2C3C=CC4(O3)C2C(=O)N(C(C)C)C4C(=O)NC2CCCCC2C)c1 (stereo not given)
→ 1% | 5 | 0.3% | -8%
#24 Cc1cc(=O)oc2cc(OC(C)C(=O)NCCCN3CCCC3=O)c(Cl)cc12 (stereo not given)
→ -3% | / | 0.2% | -7%
#25 Cc1csc(=O)n1CCC(=O)OCC(=O)Nc1cc(Cl)ccc1[N+](=O)[O-]
→ / | / | 0.7% | 2%
#26 CN(CCOCCOc1ccc2ccccc2c1)Cc1ccccc1
→ -12% | 0 | 0.2% | -3%
#27 Brc1ccc(-n2cccc2/C=N/n2cnnc2)cc1
→ -5% | 4 | -4.3% | -21%
#28 COc1cc(C)c(Cl)cc1S(=O)(=O)NCCN1CCOCC1
→ 0% | 4 | -3.4% | -3%
#29 COc1cc([C@@H]2CC=C(C(=O)O)[C@H](c3ccccc3)N2S(=O)(=O)c2ccc(C)cc2)cc(OC)c1OC
→ / | / | -1.9% | 4%
#30 CCn1nc(C)c(/C=N/NC(=O)Cn2nccc2C)c1C
→ -46% | 0 | -1.3% | 2%
#31 COc1ccc(Cc2nnc(SCC(=O)c3ccc4c(c3)OCO4)o2)cc1
→ / | / | 5.9% | 11%
#32 O=C1C=CC2(C=C1)O[C@H](Cc1ccccc1)[C@@H](Cc1ccccc1)O2
→ / | / | -1.5% | 3%
#33 Cc1cc(C)nc(SCC(=O)Nc2ncccn2)n1
→ -7% | -1 | / | /
#34 Cc1ccc(NC(=O)CN2C(=O)S/C(=C\c3cccn3-c3cccc(C(=O)O)c3)C2=O)c(C)c1
→ -1% | -14 | -0.1% | -4%
#35 C=CCn1c(=S)[nH]c2nc3c(cc2c1=O)COC(C)(C)C3
→ -1% | 5 | -0.9% | 0%
#36 CCOc1cccc(C(=O)NC(=S)Nc2cccnc2)c1
→ -47% | -1 | 5.3% | -2%
#37 C[C@H](NC(=O)c1ccco1)C(=O)Nc1nc(-c2ccccn2)cs1
→ / | / | 0.1% | -8%
#38 CCOC(=O)C1=C(CS(=O)(=O)c2ccccc2)NC(=O)NC1c1cc(OC)c(O)c(OC)c1 (stereo not given)
→ -4% | / | -1.2% | 12%
#39 CCOC(=O)C1=C(C)NC(C)=C(C(=O)OCC)C1C(=O)OCC(=O)N1c2ccccc2CC1C (stereo not given)
→ 4% | -8 | ? | -16%&0%
#40 CCOC(=O)CC(=O)c1sc2c(c1N)c(=O)[nH]c(=O)n2-c1ccc(OC)cc1
→ -5% | / | -0.3% | 1%
#41 O=c1[nH]cnc2c1C(c1ccccc1[N+](=O)[O-])c1c(nc[nH]c1=O)O2
→ 1% | 1 | -4.7% | -13%
#42 C/C(=N\NC(N)=O)c1ccc(-n2ccnc2)cc1
→ -7% | 7 | 0.0% | 19%
#43 CCOc1ccc(NC(=O)CN(C)C(=O)CC(NC(=O)c2ccccc2)c2ccccc2)cc1OCC (stereo not given)
→ / | / | -0.8% | 7%
#44 CCOC(=O)CSc1nc(=O)n2ccccc2n1
→ 1% | 1 | -0.6% | 51%
#45 O=C(NC1CCCC1)c1cc2c(=O)n3ccccc3nc2s1
→ / | / | ? | ?
#46 COc1ccc(CCNC(=O)CC(c2ccccc2)c2cccc(C)c2O)cc1OC (stereo not given)
→ 28% | ? | 0.7% | -15%
#47 CC1CC(NC(=O)c2c(O)nc3ccccn3c2=O)CC(C)(C)C1 (stereo not given)
→ / | / | -5.0% | -10%
#48 O=C(CNS(=O)(=O)c1ccc(F)c(Cl)c1)N1CCCCCC1
→ -3% | -8 | 0.3% | 21%
#49 O=C1CC(c2ccncc2)c2cc3c(cc2N1)OCO3 (stereo not given)
→ -1% | -13 | -0.8% | -4%
#50 Cc1[nH]c(C)c(S(=O)(=O)NCCc2ccccc2)c1C(=O)N1CCCCC1
→ -3% | / | -2.6% | -6%

Continuation:
Below each SMILES: miR-21 FLuc | GLA inh pH 4.5 | Rango-impB inh | Rango dissoc inh
#51 COc1ccccc1OCC(=O)N(Cc1nc(-c2ccccc2)no1)C(C)C
→ -11% | / | 0.1% | -1%
#52 Cc1cccc(NC(=S)N(CCCN2CCOCC2)C(C)c2cc3ccccc3o2)c1 (stereo not given)
→ -12% | 2 | 0.1% | 0%
#53 CN(Cc1cccc(F)c1)C(=O)CN1CCN(S(=O)(=O)c2ccc3c(c2)OCCCO3)CC1
→ / | / | 3.2% | 32%
#54 O=C(COC(=O)CCN=C1NS(=O)(=O)c2ccccc21)NNC(=O)c1ccc(Cl)cc1
→ / | / | 5.7% | -9%
#55 CC1CN(C(=O)/C=C/c2ccccc2[N+](=O)[O-])CC(C)O1 (stereo not given)
→ -4% | 2 | -3.4% | 1%
#56 C[C@@H]1CC[C@@]2(O[C@H](CCO)C[C@@H](O)[C@@H]2O)O1
→ -6% | 4 | 6.1% | -5%
#57 Cc1ccc(NC(=O)C2(c3cccs3)CCOCC2)cc1C
→ -4% | 4 | 2.9% | 1%
#58 Cn1nnnc1SCSc1nnnn1C
→ -5% | -12 | 3.0% | -7%
#59 COc1ccccc1NC(=O)c1cc(Cl)nc2ccccc12
→ 4% | -6 | -0.4% | 18%
#60 CN1c2ccccc2-c2nc3ccccc3n2C1c1cccs1 (stereo not given)
→ 9% | ? | -3.0% | 6%
#61 COCCNC(=O)/C(C#N)=C/c1c(F)cccc1Cl
→ -11% | 2 | -2.5% | 1%
#62 COc1ccc2c(c1)C1=C(CC2)C(c2ccc(C)cc2)NC(=S)N1 (stereo not given)
→ 11% | -16 | -6.5% | 0%
#63 CN1C[C@@H]2[C@@H]3C(=O)N(Cc4ccccc4)C(=O)[C@@H]3[C@](Cc3ccccc3)(C1=O)N2C(=O)c1ccccc1
→ / | / | -1.5% | -5%
#64 COc1cc(C2C(C#N)=C(N)N(c3cccnc3)C3=C2C(=O)CCC3)ccc1O (stereo not given)
→ -4% | 0 | -1.4% | ?
#65 COC(CNC(=O)c1ccc2c(=O)n(Cc3ccc(Cl)cc3)c(=S)[nH]c2c1)OC
→ 1% | / | 0.2% | -10%
#66 COc1cc(NC(=O)CSc2nccc(=O)[nH]2)c(C)cc1[N+](=O)[O-]
→ -8% | 5 | -2.7% | 6%
#67 COC(=O)[C@H](CO)NS(=O)(=O)c1ccc(C)cc1
→ / | / | -2.0% | 0%
#68 CC1CCN(S(=O)(=O)c2ccc(C(=O)Nc3nnc(-c4ccccn4)o3)cc2)CC1
→ 1% | -19 | -1.0% | 2%
#69 Cc1ccc(NC(=O)CN(C)C(=O)COC(=O)c2nccnc2N)cc1
→ / | / | -0.5% | -22%
#70 COc1ccc(NC(=O)c2ccc(Cl)nc2)cc1S(=O)(=O)N1CCCCC1
→ 22% | -21 | 2.6% | 3%
#71 O=C(Nc1ccccc1)Nc1nc(-c2ccc(F)c(F)c2)cs1
→ -6% | / | -2.7% | 2%
#72 COc1cc(/C=C/CNC[C@H]2O[C@@H](n3cnc(C(N)=O)n3)[C@H](O)[C@@H]2O)ccc1O
→ / | / | ? | -19%
#73 COc1ccc2c(c1)C(NC(C)=O)C(=O)N2C (stereo not given)
→ -1% | 2 | -2.4% | -13%
#74 Cc1nn(CCCC(=O)NC(C)c2ccccc2)c(=O)c2nn(-c3ccccc3)c(C)c12 (stereo not given)
→ 2% | / | 1.7% | -18%
#75 O=C(O)/C=C/C(=O)Nc1ccc2nccnc2c1
→ -38% | 11 | ? | 17%
#76 O=C(c1ccc([N+](=O)[O-])cc1)N(Cc1ccc(Cl)cc1)N1C(=O)CCCC1=O
→ 0% | -23 | 0.7% | -4%
#77 COc1ccc(CN(C(=S)Nc2ccccc2)C2CC(=O)N(c3ccc(F)cc3)C2=O)cc1 (stereo not given)
→ 8% | 0 | -0.8% | 0%
#78 O=C(c1ccccc1)[C@@H]1[C@@H](C(=O)c2ccc(F)cc2)[C@@]2(C(=O)Nc3ccccc32)[C@H]2c3ccccc3C=CN12
→ -2% | -10 | ? | -18%
#79 Cc1cc(C)c(S(=O)(=O)N2CCCC2)c(C)c1
→ 0% | / | -1.2% | -6%
#80 O=C(O)/C=C/C(=O)N1CCN(c2cccc(Cl)c2)CC1
→ -4% | -3 | 4.4% | 15%
#81 CCc1ccc(NC(=S)N(CCN2CCCCC2)Cc2ccco2)cc1
→ -4% | -10 | 1.9% | 12%
#82 COC(=O)c1oc(-c2ccccc2)nc1C
→ -5% | 2 | 3.2% | 13%

An excerpt, so the mix of outcomes need not match the whole.
